miR-21 reporter – miR-21 reporter, rising signal; HeLa miR-21 FLuc reporter, luciferase, 48 h; Potency, µM (highest dose often 38.3 µM), for the others: at the top dose reporter change, positive = more light; AID 2288; 340,000 tested, under 10 active; active = well fitted rising curve with a large enough effect; inconclusive = small, poorly fitted or top-dose-only effect; inactive = no such curve, though single readings can be large or run the other way;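 note: % of control where 0% means no effect; miR-21 action dims this reporter so a rising signal means less miR-21 action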
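HeLa miR-21-FLuc reporter line, endogenous miR-21; 2000 cells/well in DMEM/10% FBS; compound titration up to ~40uM final, 48 h, 37 degree Celsius; luciferase detection reagent, 15 min lysis, CCD luminescence.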
Rango dissoc inh – inhibitors of RanGTP-induced Rango-importin beta complex dissociation. AID 540253. Potency, µM (doses to about 46.1 µM), inactives show at the top dose activity change, negative = inhibition. hit rate 0.071% among 340,000. O95149+P62826. Biochemical FRET Rango-importin beta, RanGTP-induced dissociation; active means falling FRET ratio curve, often poorly fitted, with flat reads before Ran was added; inconclusive means other falling curves, or compound fluorescence or quenching; inactive means flat or rising ratio curve;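 note: potency is the fitted concentration of half-maximal effect; % of control where 0% means no effect; nearly all actives have a fitted effect of over 45% in size; -100% = wells without RanGTP and RCC1; the record marks most hits as doubtful in a second field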
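Compounds preincubate 5 min with complex of recombinant Rango and importin beta in PBS with 1 mM DTT. Ran (0.6 uM) loaded with 2 mM GTP plus 0.2 uM RCC1 starts dissociation; FRET is recorded 45 min later.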
GLA inh pH 4.5 – alpha-galactosidase A (human) inhibition, pH 4.5 | P06280 | purified enzyme, 4-MU-alpha-Gal fluorescence, pH 4.5 | activity change, negative = inhibition, % at 105 µM | 230,000 tested, under 10 active; inconclusive = small, poorly fitted or top-dose-only inhibition, or a rising curve; inactive = flat fitted curve, though single readings scatter; no compound was filed as active;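 note: 0% = full activity with enzyme and -100% = basal without enzyme; dose as in the result columns while the protocol names 77 µM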
Rango complex inh – inhibitors of Rango-importin beta complex formation; Rango CFP/YFP FRET sensor + importin beta, 45 min; Potency, µM (series often up to 92.2 µM), inactives show at the highest dose inhibition of complex formation; hit rate 0.031% among 340,000; AID 540263; active = rising FRET ratio curve, often small or poorly fitted; inconclusive = mostly compound fluorescence or quenching in the first reads; inactive = flat curves in all reads;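 note: potency is the fitted concentration of half-maximal effect; 0% = DMSO wells and 100% = buffer wells lacking importin beta; nearly all actives have a fitted effect of over 15% in size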
Target sequence (Q14974 whole entry, looked up): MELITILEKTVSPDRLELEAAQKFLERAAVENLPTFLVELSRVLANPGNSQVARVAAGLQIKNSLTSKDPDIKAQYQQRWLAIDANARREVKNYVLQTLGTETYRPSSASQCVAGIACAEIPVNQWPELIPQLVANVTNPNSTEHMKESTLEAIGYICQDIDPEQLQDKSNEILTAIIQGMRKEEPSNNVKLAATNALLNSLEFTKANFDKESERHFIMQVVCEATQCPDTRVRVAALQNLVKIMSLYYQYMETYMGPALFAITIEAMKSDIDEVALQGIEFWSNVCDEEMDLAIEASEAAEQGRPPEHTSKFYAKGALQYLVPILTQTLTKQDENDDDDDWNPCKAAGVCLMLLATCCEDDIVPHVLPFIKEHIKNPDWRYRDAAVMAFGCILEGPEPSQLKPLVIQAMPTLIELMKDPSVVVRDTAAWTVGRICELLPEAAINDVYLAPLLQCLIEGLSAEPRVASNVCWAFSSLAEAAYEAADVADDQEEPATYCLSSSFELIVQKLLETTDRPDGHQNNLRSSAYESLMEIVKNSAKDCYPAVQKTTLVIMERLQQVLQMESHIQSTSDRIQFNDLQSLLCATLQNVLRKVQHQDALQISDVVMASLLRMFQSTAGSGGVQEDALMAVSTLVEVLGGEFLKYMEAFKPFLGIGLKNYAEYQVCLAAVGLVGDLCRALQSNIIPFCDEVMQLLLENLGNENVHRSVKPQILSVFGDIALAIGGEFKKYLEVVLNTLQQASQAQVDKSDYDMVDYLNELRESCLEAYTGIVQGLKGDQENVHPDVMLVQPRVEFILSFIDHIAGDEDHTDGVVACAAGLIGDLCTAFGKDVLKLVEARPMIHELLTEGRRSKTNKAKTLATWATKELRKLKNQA
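FRET biosensor Rango (snurportin 1 IBB between N-terminal EYFP and C-terminal Cerulean), 50 nM in PBS/1 mM DTT/0.02% Tween-20/0.1% BSA, preincubated 5 min RT with compound; 0.125 microM importin beta added, 45 min RT, CFP/YFP FRET ratio read.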
An asterisk follows results filed as active; ? = inconclusive; / = not tested or not shown; & = joins results of further samples. These rows are one share of the data; the hit share may differ from the screen's.

Screens in order: miR-21 reporter | Rango dissoc inh | GLA inh pH 4.5 | Rango complex inh
1. O=S(=O)(c1ccc2c(c1)OCCO2)N1CCC(n2nnc3cc(F)ccc32)CC1
  3% | 0% | -8 | -0.5%
2. CCN(CC)S(=O)(=O)c1ccc(NC(=O)CSc2cccc[n+]2[O-])cc1
  5% | -8% | -4 | -3.7%
3. CSC(=S)N/N=C/c1ccccc1
  -3% | 12% | -6 | -3.6%
4. CC1(c2ccc(OC(F)F)cc2)NC(=O)N(CC(=O)Nc2cccc(S(N)(=O)=O)c2)C1=O (centres undefined)
  -3% | 15% | 9 | 1.3%
5. COCCn1c(SCC(=O)N2CCCCC2)nc2c(c1=O)SC(C)C2 (centres undefined)
  0% | 0% | / | 1.5%
6. COc1ccc(-c2[nH]ncc2CN2CCC(N3CCSCC3)CC2)cc1F
  -1% | 7% | 2 | -0.7%
7. CCCS(=O)(=O)N1CCN(Cc2ccco2)CC1
  -2% | -13% | -2 | 0.8%
8. O=C(NC1=NCCS1)C12CC3CC(C1)CC(C(=O)NC1=NCCS1)(C3)C2
  1% | 2% | -4 | 1.5%
9. CN(C)S(=O)(=O)c1cccc(NC(=O)c2cc3ccccc3o2)c1
  -12% | 18% | 2 | 5.6%
10. Cc1ccc(C(=O)NCC(=O)N2CCC(Cc3ccccc3)CC2)cc1
  8% | -4% | / | 2.6%
11. CCCn1nnnc1NCc1ccc(SC)cc1
  -2% | ? | / | 1.2%
12. COc1cccc(CN=c2c([N+](=O)[O-])nn(-c3ccccc3C)n2O)c1
  0% | 4% | 1 | 0.3%
13. Cc1ccc(-c2noc(CSc3nc(N)cc(N)n3)n2)cc1
  -47% | 19% | 0 | 3.1%
14. CCCCOCCCNC(=O)c1ccc([N+](=O)[O-])c(C)c1
  -5% | -7% | 2 | 0.3%
15. CCc1ccc(NC(=O)CC2C(=O)NCCN2C(=S)Nc2ccccc2)cc1 (centres undefined)
  -8% | 5% | 1 | 5.7%
16. CCC1(c2ccc(F)cc2)NC(=O)N(CC(=O)NCc2ccccc2Cl)C1=O (centres undefined)
  2% | -14% | / | 1.8%
17. O=C(O)c1ccccc1NS(=O)(=O)c1cccc2cccnc12
  -4% | 9% | 3 | 1.8%
18. COc1ccc(CONS(=O)(=O)c2ccc(NC(C)=O)cc2)cc1Cl
  6% | 0% | 2 | -4.7%
19. COc1ccc2c(c1)S(=O)(=O)c1ccccc1N2
  -5% | 6% | -2 | 0.9%
20. O=C1NC(=S)S/C1=C\c1coc2ccccc2c1=O
  3% | -11% | -1 | 1.1%

Compounds 17 to 20, quoted:
Screens in order: miR-21 reporter | Rango dissoc inh | GLA inh pH 4.5 | Rango complex inh
17. O=C(O)c1ccccc1NS(=O)(=O)c1cccc2cccnc12
  -4% | 9% | 3 | 1.8%
18. COc1ccc(CONS(=O)(=O)c2ccc(NC(C)=O)cc2)cc1Cl
  6% | 0% | 2 | -4.7%
19. COc1ccc2c(c1)S(=O)(=O)c1ccccc1N2
  -5% | 6% | -2 | 0.9%
20. O=C1NC(=S)S/C1=C\c1coc2ccccc2c1=O
  3% | -11% | -1 | 1.1%

An excerpt from above in order of formula weight, falling.
Screens in order: miR-21 reporter | Rango dissoc inh | GLA inh pH 4.5 | Rango complex inh
2. CCN(CC)S(=O)(=O)c1ccc(NC(=O)CSc2cccc[n+]2[O-])cc1
  5% | -8% | -4 | -3.7%
12. COc1cccc(CN=c2c([N+](=O)[O-])nn(-c3ccccc3C)n2O)c1
  0% | 4% | 1 | 0.3%
10. Cc1ccc(C(=O)NCC(=O)N2CCC(Cc3ccccc3)CC2)cc1
  8% | -4% | / | 2.6%
9. CN(C)S(=O)(=O)c1cccc(NC(=O)c2cc3ccccc3o2)c1
  -12% | 18% | 2 | 5.6%
3. CSC(=S)N/N=C/c1ccccc1
  -3% | 12% | -6 | -3.6%

Continued.
Screens in order: miR-21 reporter | Rango dissoc inh | GLA inh pH 4.5 | Rango complex inh
21. COc1ccc(NC(=O)CSc2nnc(-c3ccccc3Cl)n2Cc2ccco2)c(OC)c1
  3% | -6% | -11 | -3.4%
22. CCN(CC)c1ccc(NC(=O)COC(=O)CCC(=O)c2ccc(F)cc2)cc1
  0% | -9% | 0 | -1.0%
23. CC(C)NC(=S)NNc1nc2ccccc2s1
  -13% | -3% | -5 | 1.7%
24. COC(=O)CSc1nnc(C)n1-c1ccc(C)cc1
  -2% | 12% | -2 | -1.7%
25. CN(C)c1ccc(N/C=C/C(=O)c2ccccc2)cc1
  -59% | 6% | 3 | ?
26. C#CCOCCOCCOCCNc1nc(N2CCN(C(=O)CCCCCCCCCCNC(=O)Cn3cc(CCCCCN)nn3)CC2)nc(N2CCN(C(=O)CCCCCCCCCCNC(=O)Cn3cc(CCCCCN)nn3)CC2)n1
  / | 1% | / | 3.5%
27. COc1cc(OC)c(NC(=O)c2cc3ccccc3cc2O)cc1Cl
  / | ? | / | ?
28. CCCCn1nc2cc(C(=O)NCc3cc(C(F)(F)F)cc(C(F)(F)F)c3)ccc2c1OCC
  -4% | 8% | -14 | 0.3%
29. Cn1nc(C(F)(F)F)cc1C(=O)O
  -8% | -11% | 0 | 1.0%
30. CC(C)Cc1nnc(NC(=O)Cc2cccs2)s1
  -10% | -21% | -7 | ?
31. Cc1ccc(C(O)P(=O)(OC(C)C)c2ccc(N(C)C)cc2)cc1 (centres undefined)
  2% | -6% | 7 | -2.3%
32. CN(C)c1ccc(NC(=O)C[n+]2ccccc2)cc1
  2% | 8% | / | 2.7%
33. O=C(/C=C/c1ccco1)NC(=S)Nc1ccccc1Br
  -20% | -6% | / | -5.1%
34. COc1cccc(N2CCN(C(=S)Nc3ccc(C)cc3C)CC2)c1
  -2% | 4% | / | -2.1%
35. O=C(NCc1cccnc1)c1cc(-c2cccs2)on1
  -34% | -16% | 2 | 1.1%
36. O=C(O)Cn1c(SCc2ccccc2)nc2ccccc21
  3% | 6% | 4 | 1.5%
37. O=C1CN(c2nc(-c3cccnc3)nc3scc(-c4ccccc4)c23)CCN1
  -48% | -9% | 3 | -2.3%
38. CC1(C)CC(=O)C(C(=O)c2ccccc2)C(=O)C1
  -3% | 7% | 1 | 3.7%
39. O=C(O)CCC(=O)N1N=C(c2cccs2)CC1c1cccc([N+](=O)[O-])c1 (centres undefined)
  0% | 10% | / | 2.0%
40. CC1CN(C(=O)CCNC(=O)c2ccccc2Cl)CC(C)O1 (centres undefined)
  -1% | 3% | / | -2.3%
41. Cc1c(NC(=O)CN2C(=O)c3cccc4cccc2c34)c(=O)n(-c2ccccc2)n1C
  -4% | -16% | 4 | ?
42. COc1cc2[nH]c(=O)n(CCCCCC(=O)N3CC=C(c4ccccc4)CC3)c(=O)c2cc1OC
  0% | -6% | -3 | 0.0%
43. CCN(CC)CCN(Cc1cc2cc3c(cc2[nH]c1=O)OCO3)C(=S)NCc1ccco1
  5% | -17% | -5 | -3.4%
44. COc1ccccc1NC(=O)Nc1nc(CC(=O)N2CCN(c3ccccc3)CC2)cs1
  / | 13% | / | 6.9%
45. COc1ccc(-c2cc(C(=O)NC(C(=O)O)C(C)C)c(C)o2)cc1OC (centres undefined)
  -48% | -14% | 8 | -0.4%
46. Cc1ccc(-c2cc(C(=O)OCC(=O)Nc3cc(C)on3)c3ccccc3n2)c(C)c1
  -4% | -3% | -11 | -0.6%
47. COc1cc(CNCc2ccc(SC)cc2)cc(OC)c1
  -4% | 13% | -19 | -2.3%
48. Cc1cc(/C=C2\SC(=S)NC2=O)c(C)n1-c1cccc(O)c1
  -37% | ? | -10 | ?
49. O=C(CCl)Nc1cccc(CP(=O)(c2ccccc2)c2ccccc2)c1
  ? | -2% | -5 | -2.1%
50. CCOC(=O)Cc1[nH]nc2c1C(c1ccoc1)C(C#N)=C(N)O2 (centres undefined)
  0% | 0% | -7 | 0.3%
51. Cc1noc(C)c1NC(=O)Nc1cccc2c1O[C@H](CN(C)C(=O)Nc1ccccc1)[C@@H](C)CN([C@H](C)CO)C2=O
  / | -4% | / | 0.4%
52. Cc1ccc(SC[C@H](Cc2ccccc2)N2CC[C@@H](C)CCC2=O)cc1
  1% | -23% | / | -3.1%
53. Cc1cc(C(=O)OCC(=O)NC(C)C)c(C)o1
  -4% | 15% | 7 | -0.9%
54. COc1ccccc1C1C(C#N)=C(N)Oc2cc(C)n(CCCn3ccnc3)c(=O)c21 (centres undefined)
  0% | 1% | -4 | 0.2%
55. COc1ccc(C(=O)O/N=C(\N)c2ccc(OC)c(OC)c2)c(OC)c1
  -57% | 0% | / | -4.9%
56. CC(Sc1ncn[nH]1)C(=O)Nc1ccc(Cl)cn1 (centres undefined)
  / | -11% | / | -4.0%
57. CSc1ccccc1NC(=O)CN(C)C(=O)C1CC(=O)N(C(C)c2ccccc2)C1 (centres undefined)
  / | -14% | / | -0.9%
58. CSc1ccccc1NC(=S)N/N=C/c1cccn1Cc1ccc(F)cc1
  16% | 0% | -2 | -2.1%
59. CCCOC(=O)c1[nH]c2c(c1C)C(=O)CC(c1ccc(OC)c(OC)c1)C2 (centres undefined)
  -3% | 0% | -1 | 0.0%
60. Cc1ccc(N2CC(C(=O)Nc3ccc(S(=O)(=O)N4CCOCC4)cc3)CC2=O)cc1Cl (centres undefined)
  / | 5% | / | -4.4%
61. CNC(=O)n1cc(C)c(-c2cccs2)n1
  -1% | -9% | -5 | -2.1%
62. O=C(c1ccc(F)cc1)N(Cc1ccccc1)C1CCS(=O)(=O)C1 (centres undefined)
  -2% | 5% | -7 | -3.5%
63. COc1cc(OC)c(-c2nc(-c3ccncc3)no2)cc1OC
  -1% | -22% | / | 2.7%
64. COc1ccc(NC(=O)c2cccs2)cc1NC(=O)c1ccco1
  -4% | -8% | 1 | ?
65. N[C@@H](Cc1ccccc1)C(=O)N1CCC(C(=O)N[C@@H](Cc2c[nH]c3ccccc23)C(=O)O)CC1
  2% | -4% | / | 0.9%
66. CCCOc1ccc(C(C)=O)cc1CC(C(=O)OCC)C(=O)OCC
  -1% | -10% | -9 | 0.2%
67. CCOC(=O)N1CCN(C(=O)CNC(=O)c2nn(-c3ccc(OC)cc3)c(=O)c3ccccc23)CC1
  0% | -1% | ? | 2.3%
68. Cc1ccc2c(c1)C(c1ccc(F)cc1)N(C(=O)c1ccccc1Br)CC(=O)N2 (centres undefined)
  6% | -9% | / | -1.1%
69. Cc1cc(C)c(C#N)c(SCC(=O)Nc2cc(C)on2)n1
  / | -18% | / | -3.3%
70. Cc1ccc(-n2c3nc(=O)n(C)c(=O)c-3cc3ccccc32)cc1
  3% | ? | 20 | ?
71. O=C(COC(=O)c1cc(=O)[nH]c2ccccc12)Nc1nc(-c2ccccc2)cs1
  -18% | 3% | -8 | 0.4%
72. CCN1CCN(Cc2ccc(NC(=O)c3cc(NC(=O)c4cc(C)on4)cc(OC)c3)cc2C(F)(F)F)CC1
  12% | 4% | / | 0.0%
73. Cn1c(=O)c2cc(S(=O)(=O)Nc3cc(C(=O)O)cc(C(=O)O)c3)ccc2n(C)c1=O
  0% | 6% | -6 | -1.8%
74. COC(=O)CNC(=O)C1(C)C=CCN1C(=O)c1ccccc1 (centres undefined)
  -49% | -3% | -1&-3 | 9.5%
75. O=C(COC(=O)/C=C/c1ccc(S(=O)(=O)N2CCOCC2)cc1)NCc1ccc2c(c1)OCO2
  -1% | 7% | -1 | -4.4%
76. N#CC(c1ccc(O)cc1)N1CCN(C(C#N)c2ccc(O)cc2)CC1 (centres undefined)
  / | -19% | / | ?
77. Cc1cc(C)cc(Oc2ccc(N)cc2)c1
  1% | ? | -6 | 0.7%
78. Cc1ccc(C)c(SCC(=O)c2ccc[nH]2)c1
  -29% | -16% | -6 | 0.0%
79. CC(=O)Oc1cccc(N2C(=O)c3ccc(C(=O)O)cc3C2=O)c1
  -2% | 0% | 3 | -6.7%
80. CC1Sc2ccc(S(=O)(=O)CCC(=O)Nc3ccccn3)cc2NC1=O (centres undefined)
  9% | ? | / | 0.1%
81. CCOC(=O)C1CCN(S(=O)(=O)c2cc(Cl)c(C)cc2OC)CC1
  -12% | -2% | -2 | 0.3%
82. O=[N+]([O-])c1cccc(CN2CCN(c3cccc4[nH]ccc34)CC2)c1
  -7% | -9% | / | -3.8%
